T cruzi inh = T. cruzi replication inhibition | T. cruzi beta-gal in NIH3T3, luminescence, 90 h | inhibition, % (test concentration not listed) | 300,000 compounds, 1.4% hits | AID 1885;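 active means mean inhibition across valid replicates above about 55%, limit read from the data; inconclusive means mean below that limit but half or more replicates reach it; inactive means mean below it, under half of replicates reach it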;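 further: signal also drops with host cell toxicity which is not excluded here; 0% = plate median of DMSO wells and 100% = zero luminescence signal; higher percent means less beta-gal luminescence so fewer parasites; stock transfer was 50 nL into about 50 µL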
FGF22 binding = shifts melting point of recombinant human FGF22; Q9HCT0; recombinant FGF22 thermal shift, SYPRO orange fluorescence; percent of sucrose octasulfate shift, DMSO zero; calls only at 9.99 µM; 340,000 compounds, 1.5% hits; AID 651658;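 active means melting point raised past a set limit in the mean and every replicate; inconclusive means no clear call; three in four hits are not shown here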
Target sequence (Q9HCT0 whole entry, looked up): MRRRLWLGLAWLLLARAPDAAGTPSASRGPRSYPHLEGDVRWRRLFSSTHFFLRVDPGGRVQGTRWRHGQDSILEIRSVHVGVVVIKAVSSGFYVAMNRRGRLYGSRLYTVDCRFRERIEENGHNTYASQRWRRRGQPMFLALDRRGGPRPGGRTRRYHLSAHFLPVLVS
RanGTP-Imp inh = disruptors of Ran-importin-beta complex formation – biochemical, FRET, CFP-Ran, YFP-importin-beta, homogeneous, primary screen. cell-free CFP-Ran/YFP-importin-beta FRET ratio. inhibition, % (test concentration not listed). 300,000 compounds, 1.1% hits. AID 2216;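 active means most replicates above 15%; inconclusive means exactly half above 15%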;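 further: 0% = DMSO wells and 100% = Ran loaded with GDP instead of GTP; wells of about 40 µL received 100 nL stock; the first replicate is given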
Ecoli rRNA inh = selective bacterial rRNA inhibition in E. coli. E. coli WT GFP vs humanized-ribosome RFP mutants, fluorescence, 24 h; hits give low values; DMSO median 0, no signal -100. GFP signal change (wild-type ribosome), % (concentration not given with the values). 350,000 compounds, 1.6% hits. AID 720706;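 active means significant combined selectivity score with lowered wild-type GFP, culture density cut under 30%, mutant RFP and density less affected; inactive means any of these conditions unmet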; further: one replicate is shown; some compounds called inactive have numbers as strong as hits
Calb FLC = affects C. albicans growth with fluconazole; C. albicans CaCi-2 (fluconazole-resistant clinical isolate) + fluconazole, Alamar Blue growth, 48 h; growth inhibition, % (test concentration not listed); 300,000 compounds, 0.57% hits;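 active means most replicates above 75%; inconclusive means exactly half above 75%; inactive means most below 75%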;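 further: all wells also contain fluconazole at 8 µg/ml as a sub-toxic cotreatment; 0% = median of DMSO wells and 100% = median of geldanamycin control wells; wells of about 8 µL received 7.5 nL stock; the first replicate is given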
ALR H2O2 inh = human ALR oxidase inhibition via reduced H2O2. P55789. purified ALR, DTT oxidation, H2O2 HRP-luminol luminescence. inhibition, % (concentration not given with the values). 290,000 compounds, 3.8% hits. AID 485317;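 active means mean and each replicate at 75% or more; inconclusive means only one of the two met; inactive means neither met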;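 further: stock transfer was 7.5 nL into about 7.5 µL; 0% = neutral wells and 100% = wells with inactivated enzyme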
Target sequence (P55789 whole entry, looked up): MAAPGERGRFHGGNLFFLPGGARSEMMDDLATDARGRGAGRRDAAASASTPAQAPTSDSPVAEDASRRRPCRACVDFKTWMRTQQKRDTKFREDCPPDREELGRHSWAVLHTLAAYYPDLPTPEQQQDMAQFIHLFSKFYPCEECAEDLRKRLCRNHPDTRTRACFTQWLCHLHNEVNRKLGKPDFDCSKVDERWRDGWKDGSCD
Beta cell apopt = blocks beta cell apoptosis; AID 435005; protection from apoptosis, % (no concentration beside the values); 300,000 compounds, 0.8% hits; INS-1E cytokine-induced death, ATP luminescence, 48 h; percent of positive-control rescue, neutral wells zero;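 active means all replicates at 75% or more, or half of them and the mean; inconclusive means half reach 75% but not the mean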;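 further: 0% = cytokine-treated negative control wells and 100% = positive control rescue; higher means more ATP so stronger rescue from cytokine killing; wells of about 40 µL received 100 nL stock; the first replicate is given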
AF4-AF9 inh = blocks AF4 peptide binding to human AF9; AID 651704; 350,000 compounds, 0.47% hits; P42568; inhibition, % at 10 µM; AlphaScreen, biotin-AF4 peptide binding to FLAG-AF9;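 active means every replicate reaching a set inhibition limit, whatever the replicate mean, cut at about 25% in these data; inconclusive means mean inhibition reaches that limit but some replicates miss it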;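 further: 0% = plate neutral control median and 100% = total signal loss; the record names both 10 and 1 µM as test concentration; the first replicate is given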
Target sequence (P42568 whole entry, looked up): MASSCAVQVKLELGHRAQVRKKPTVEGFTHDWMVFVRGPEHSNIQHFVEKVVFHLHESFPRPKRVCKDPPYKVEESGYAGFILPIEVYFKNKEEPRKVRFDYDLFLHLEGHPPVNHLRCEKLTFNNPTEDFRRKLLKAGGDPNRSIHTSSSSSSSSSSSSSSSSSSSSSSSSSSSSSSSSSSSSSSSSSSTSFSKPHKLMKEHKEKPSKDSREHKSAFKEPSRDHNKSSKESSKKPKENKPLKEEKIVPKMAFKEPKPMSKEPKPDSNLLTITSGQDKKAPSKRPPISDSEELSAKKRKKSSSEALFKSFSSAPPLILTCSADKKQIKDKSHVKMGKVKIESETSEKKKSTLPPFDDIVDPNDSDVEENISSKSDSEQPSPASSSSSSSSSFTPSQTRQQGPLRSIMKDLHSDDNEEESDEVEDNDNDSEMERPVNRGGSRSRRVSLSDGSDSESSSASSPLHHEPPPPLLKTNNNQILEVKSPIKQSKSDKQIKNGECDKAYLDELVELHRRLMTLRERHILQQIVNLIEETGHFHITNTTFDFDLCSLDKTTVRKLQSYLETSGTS
Ecoli rRNA inh OD600 = also measured in Ecoli rRNA inh; calls as there; OD600 change, %; measured here: OD600 growth;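 optical density of the mix in the first replicate; 0 = DMSO median and -100 = no signal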
Ecoli rRNA inh RFP = second read-out of Ecoli rRNA inh, no call of its own (marks repeat the call); RFP signal change, %; measured here: RFP humanized mutant strains;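 first replicate; 0 = DMSO median and -100 = no signal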
Numbers without * were called inactive; i = inactive; ? = inconclusive; / = no result given. This is a subset; count on the stated rates, not on these rows.

SMILES	T cruzi inh	FGF22 binding	RanGTP-Imp inh	Ecoli rRNA inh	Ecoli rRNA inh OD600	Ecoli rRNA inh RFP	Calb FLC	ALR H2O2 inh	Beta cell apopt	AF4-AF9 inh
COc1ccccc1CC1S/C(=N/N=C/c2ccco2)NC1=O (stereo not drawn)	-2.8	i	3.0	-0.8	-7.2	-2.0	?	-5.6	-6.2	-2.8
O=C(COC(=O)c1ccccn1)Nc1c(Cl)cccc1Cl	10.2	/	-1.1	/	/	/	-3.3	-1.8	-5.7	/
CCOC(=O)c1c(C)[nH]c(C)c1C(=O)Cn1nnc(-c2ccccc2C)n1	32.8	/	4.3	/	/	/	-3.1	/	-4.7	/
CC(=O)N1CCN(S(=O)(=O)c2cccc(C(=O)N(Cc3ccccc3)c3ccc(C)cc3)c2)CC1	10.1	i	/	-6.1	-11.5	-0.4	-11.5	-5.4	-11.8	6.6
CC(C)n1nc(C(=O)Oc2ccc(Cl)cc2)c2ccccc2c1=O	2.7	/	3.8	/	/	/	-5.7	5.9	-4.4	/
COc1nnc(-c2ccc(C)cc2)c2ccccc12	-22.1	i	?	-20.4	-16.7	-3.8	49.3	45.8	-5.1	-1.1
Cc1nnc(SCC(=O)N2CCN(S(=O)(=O)c3ccc(Cl)cc3)CC2)n(N)c1=O	-1.8	/	0.9	/	/	/	-6.3	-4.4	-0.4	/
COc1ccc(-n2nc(C(=O)NCC(=O)N3CCCCC3)c3ccccc3c2=O)c(OC)c1	-4.2	i	3.2	0.9	-7.0	-0.5	1.6	-1.2	-3.4	1.4
CC(=O)NCCc1ccc(S(=O)(=O)N2CCCC2)cc1	-2.2	/	4.8	/	/	/	-7.7	-8.4	2.5	/
COC(=O)C1=NN(C(C)=O)C2(CC(=O)N(c3cc(C)cc(C)c3)C2=O)C1 (stereo not drawn)	-17.8	i	-1.5	-15.5	-25.2	-11.6	?	-0.3	-2.9	4.2
O=C1C2C3CCCC3=C3CCCC3C2C(=O)N1c1ccc(Cl)cc1 (stereo not drawn)	-5.1	/	-0.9	/	/	/	-3.7	8.1	-5.3	/
COc1cc(COCC(O)CN2CCN(CCN3C(=O)c4cccc5cccc(c45)C3=O)CC2)cc(OC)c1OC (stereo not drawn)	-51.6	i	?	-6.8	-1.3	-0.4	-13.1	-2.9	19.2	2.8
CCN(C(=O)CCc1nnc2ccc(NCc3ccco3)nn12)c1ccccc1	1.4	i	-1.2	6.5	-0.9	-1.6	-1.5	-5.3	/	-18.9
O=C(COC(=O)C12CC3CC(CC(Cl)(C3)C1)C2)Nc1ccccc1	/	i	/	-1.2	-6.3	0.3	/	1.5	-2.8	-0.7
O=C(CSCC(=O)N1CCCCC1)Nc1nc(-c2ccccc2)c(-c2ccccc2)s1	/	i	/	5.2	-7.3	0.9	/	/	-4.1	4.4
S=C(NCCc1ccccn1)Nc1ccc(Cl)cc1Cl	3.4	i	0.4	-14.7	-17.6	-7.6	-5.7	57.5	-6.5	0.3
CSCCC(NC(=O)c1ccccc1)C(=O)NNC(=O)c1csc(N2CCOCC2)n1 (stereo not drawn)	-0.4	i	3.3	5.6	5.3	-2.0	-1.7	-3.6	-0.9	-1.6
Nc1nc(SCCOc2ccccc2)n[nH]1	-7.8	/	-5.6	/	/	/	0.7	/	-3.9	/
Cc1ccc(N2CCN(S(=O)(=O)N3CCOCC3)CC2)cc1C	3.2	i	-3.6	3.1	-1.3	-3.5	6.7	26.3	3.1	1.1
CCCC(C(=O)NC1CCCC1)N(C(=O)Cn1nnc(-c2ccc(C)o2)n1)c1cccc(O)c1 (stereo not drawn)	1.4	i	5.0	-0.3	-14.4	1.6	3.9	/	/	3.9
CC(C)C(=O)NC(c1cccs1)c1cc([N+](=O)[O-])c2cccnc2c1O (stereo not drawn)	-11.0	/	-2.4	/	/	/	89.8*	-29.1	97.3*	/
Cc1ccc(/C=N/Nc2nc(N3CCOCC3)nc(N3CCOCC3)n2)o1	-8.6	i	4.1	3.5	1.4	-1.1	6.9	10.3	-9.8	0.6
O=C(CSc1nnc(CNC(=O)c2c(F)cccc2F)o1)Nc1ccc2c(c1)OCCO2	0.0	i	3.0	/	/	/	-2.9	98.3*	3.0	-1.4
CC1(C)Cc2c(sc(NC(=O)c3ccc4ncsc4c3)c2C(N)=O)C(C)(C)N1	0.8	i	4.0	-10.9	-12.2	0.0	-5.6	12.7	-10.1	-2.3
COc1ccc(S(=O)(=O)NC2CCCCCC2)cc1C(N)=O	17.2	i	?	8.3	6.0	0.3	-11.0	-5.8	-5.0	-3.8

New compounds follow.
SMILES	T cruzi inh	FGF22 binding	RanGTP-Imp inh	Ecoli rRNA inh	Ecoli rRNA inh OD600	Ecoli rRNA inh RFP	Calb FLC	ALR H2O2 inh	Beta cell apopt	AF4-AF9 inh
COc1ccc(NC(=O)CSc2nc(=O)n(CCN3CCOCC3)c3c2CCC3)c(OC)c1	5.2	i	0.0	-1.1	-4.7	-1.6	26.1	-23.6	-1.4	-0.3
COCC(C)n1c(C)cc(C(=O)Cn2c(=O)oc3ccccc32)c1C (stereo not drawn)	-28.0	/	0.8	/	/	/	-4.4	-7.8	3.9	/
COc1ccccc1N1CCN(C2CCCCC2NS(=O)(=O)c2ccccc2)CC1 (stereo not drawn)	18.9	i	1.5	-4.7	-3.0	2.6	-30.2	13.8	10.9	6.3
COc1cccc(C2NC(=O)NC(C)=C2C(=O)OCC2CCCO2)c1 (stereo not drawn)	-20.3	i	?	-2.4	8.9	-3.6	-0.8	-18.8	0.9	0.5
CC1(C)Cc2c(cnn2-c2ccc(F)cc2)C(NC(=O)CCc2ccncc2)C1 (stereo not drawn)	-1.4	i	-3.2	-0.5	5.9	-1.8	3.3	/	/	-0.4
CN(C(=O)c1cccc(NC(=O)C2CCCN(C(=O)OC(C)(C)C)C2)c1)C1CCCC1 (stereo not drawn)	/	i	/	3.7	-0.9	-8.3	/	-4.0	2.1	-3.3
CCOc1ccc(NC(=S)N2CCC(c3nc4ccccc4[nH]3)CC2)cc1	3.8	i	-4.9	-20.0	-16.1	12.3	-12.1	-5.4	9.2	-1.3
Cn1c(=O)n(C)c2cc(NS(=O)(=O)c3ccccc3)ccc21	-11.4	/	-0.4	/	/	/	-5.6	-11.7	-8.2	/
CC(C)C[C@H](NC(=O)C1CC(=O)N(c2ccc3c(c2)OCCO3)C1)C(=O)NC1CCCC1 (stereo partly drawn)	-4.2	i	?	1.4	11.6	-0.6	-7.7	-2.2	-2.4	0.5
O=C(NN=C1c2ccccc2-c2ccccc21)c1ccccc1Br	2.6	i	2.4	27.6	10.8	1.4	28.3	0.7	-1.8	1.2
N#CCC(=O)NN=C1CCCCCCCCCCC1	-3.1	i	-0.4	4.5	2.2	1.0	-1.8	9.7	-10.6	-0.6
O=C(CSc1nnc(NC(=O)c2ccco2)s1)Nc1ccccc1Br	-9.3	i	-1.4	3.4	3.5	-2.7	-9.7	-1.7	-2.1	0.8
CCC(=O)N1CCc2cc(Br)cc(S(=O)(=O)Nc3c(C)n(C)n(-c4ccccc4)c3=O)c21	5.6	/	-1.5	/	/	/	-2.3	0.2	2.6	/
CCCC(=O)C1=C(c2ccccc2)C(C#N)(C#N)C(C#N)=C1N	4.5	/	-1.4	/	/	/	27.3	98.7*	-3.9	/
CCc1nnc(N/N=C/c2c(Cl)cccc2Cl)n1N	10.2	/	?	/	/	/	-0.1	-110.2	-1.7	/
Cc1ccc2nc(-c3ccccc3)cc(C(=O)NCCCn3ccnc3)c2c1	27.0	/	-1.8	/	/	/	-4.2	-5.1	-4.9	/
Cc1c(C(=O)N2CCCCC2)sc(N)c1C#N	-10.8	/	-2.1	/	/	/	0.8	16.0	2.3	/
CSc1nc(-c2ccccc2)ccc1C(N)=O	-5.9	/	1.2	/	/	/	-6.3	-1.4	-2.5	/
COc1ccc(CNCc2ccco2)cc1OCc1ccccc1	-8.7	/	-0.3	/	/	/	4.5	-16.7	15.0	/
Cc1ccsc1/C=N/Nc1ccc(Cl)nn1	-4.0	i	-3.5	8.0	-0.4	2.3	-6.3	/	-2.8	0.1
CC1Cc2ccccc2N1C(=O)COC(=O)c1ccc(Cl)nc1 (stereo not drawn)	-24.5	i	2.8	3.4	-4.0	3.9	14.5	22.0	-4.8	-2.5
Cc1cc(=O)oc2cc(OCC3CC(c4ccc(N(C)C)cc4)=NO3)ccc12 (stereo not drawn)	15.8	/	0.4	/	/	/	-4.7	/	0.4	/
CN(c1ccccc1)S(=O)(=O)c1ccc(C(=O)NCc2ccc(F)cc2)cc1	/	i	/	-21.7	-36.6	-4.8	/	-0.8	4.9	3.8
O=C(O)CCCC(=O)N1CCC(C(O)(c2ccccc2)c2ccccc2)CC1	3.1	i	0.8	11.2	4.4	0.6	-7.3	-2.5	-5.7	-1.9
C#CCOCCOCCOCCNc1nc(N2CCN(C(=O)C([C@@H](C)O)n3cc([C@@H](N)CCCCN)nn3)CC2)nc(N2CCN(C(=O)[C@H](CCCCN)n3cc([C@@H](N)CC(N)=O)nn3)CC2)n1 (stereo partly drawn)	/	i	/	9.9	10.5	5.4	/	7.3	-5.1	45.0*

Later entries
SMILES	T cruzi inh	FGF22 binding	RanGTP-Imp inh	Ecoli rRNA inh	Ecoli rRNA inh OD600	Ecoli rRNA inh RFP	Calb FLC	ALR H2O2 inh	Beta cell apopt	AF4-AF9 inh
COc1ccc(/C=C2\SC(=O)N=C2N)cc1OC	7.4	i	?	5.4	2.1	-0.3	-1.2	-7.9	-7.0	-11.2
CC1(C(=O)CSc2ncn[nH]2)CCC(=O)O1 (stereo not drawn)	-18.3	/	0.1	/	/	/	3.1	10.2	-7.9	/
COc1ccccc1OCC(=O)Nc1cccc(S(=O)(=O)NC2=NCCCCC2)c1	4.2	i	-5.6	1.8	1.3	-0.1	-3.9	/	-1.1	0.2
COC(=O)CSc1nc2ccc(NC(=O)CSc3nnnn3Cc3ccccc3)cc2s1	0.3	/	-2.0	/	/	/	21.2	33.2	6.1	/
c1ccc(Nc2ccccc2)cc1	-1.0	i	1.2	20.6	13.5	-1.3	-3.5	6.5	-2.7	-1.1
CCCCNC(=O)C(CC)Sc1nc2sc(C(=O)OC)c(C)c2c(=O)n1N (stereo not drawn)	11.1	/	1.7	/	/	/	15.3	7.8	9.4	/
O=C(COC(=O)c1cc(=O)[nH]c2ccccc12)Nc1ccccc1F	/	i	/	-4.5	-12.4	-5.4	/	-0.1	-6.8	-0.4
CCCc1nc(NCc2ccccc2)c(C#N)c2c1CCCC2	-0.3	i	3.9	-4.1	1.8	-1.6	-47.7	-10.2	-11.1	0.8
CCOC(=O)c1c(C)[nH]c(C(=O)COC(=O)c2ccc(F)c(S(=O)(=O)N3CCOCC3)c2)c1C	1.2	/	-5.8	/	/	/	0.8	-2.5	1.1	/
COc1ccc(C(=O)NCCS(=O)(=O)NC2CCCC2)cc1	-11.8	i	-0.7	10.0	10.4	2.2	-3.0	/	/	0.1

Quoted from the listing:
CCCCNC(=O)C(CC)Sc1nc2sc(C(=O)OC)c(C)c2c(=O)n1N (stereo not drawn) in ALR H2O2 inh → 7.8
CCOC(=O)c1c(C)[nH]c(C(=O)COC(=O)c2ccc(F)c(S(=O)(=O)N3CCOCC3)c2)c1C in Calb FLC → 0.8

Bioassay records as filed in PubChem.
